CSC inhib: cancer stem cell inhibition; inhibition, % at 7.5 µM; 300,000 compounds, 1.1% hits; cancer stem cell-like cells viability, luminescence;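 active means mean at 75% or more and at least half the replicates too; inconclusive means mean and replicates disagree; tested in HMLE shEcad cells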;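 further: 0% = median of negative and 100% = median of positive control wells; the first replicate is given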
PABP polyA inh: PABP-poly(A) binding inhibition; PABP-poly(A) RNA binding, fluorescence polarization; 290,000 compounds, 1% hits; inhibition, % at 35 µM;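 active means 50% or more with normal probe brightness, or confirmed in later tests; inconclusive means above 50% with abnormal brightness, or retests that disagree; inactive means below 50% or failed in later tests; about a fifth of its hits are not listed in these tables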;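 further: calls also rest on retests at 20 µM and on dose response follow-up; controls were probe without protein and protein plus probe with vehicle; some compounds called inactive have numbers as strong as hits; many hits fall short of the cut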
Target sequence (P11940 whole entry, looked up): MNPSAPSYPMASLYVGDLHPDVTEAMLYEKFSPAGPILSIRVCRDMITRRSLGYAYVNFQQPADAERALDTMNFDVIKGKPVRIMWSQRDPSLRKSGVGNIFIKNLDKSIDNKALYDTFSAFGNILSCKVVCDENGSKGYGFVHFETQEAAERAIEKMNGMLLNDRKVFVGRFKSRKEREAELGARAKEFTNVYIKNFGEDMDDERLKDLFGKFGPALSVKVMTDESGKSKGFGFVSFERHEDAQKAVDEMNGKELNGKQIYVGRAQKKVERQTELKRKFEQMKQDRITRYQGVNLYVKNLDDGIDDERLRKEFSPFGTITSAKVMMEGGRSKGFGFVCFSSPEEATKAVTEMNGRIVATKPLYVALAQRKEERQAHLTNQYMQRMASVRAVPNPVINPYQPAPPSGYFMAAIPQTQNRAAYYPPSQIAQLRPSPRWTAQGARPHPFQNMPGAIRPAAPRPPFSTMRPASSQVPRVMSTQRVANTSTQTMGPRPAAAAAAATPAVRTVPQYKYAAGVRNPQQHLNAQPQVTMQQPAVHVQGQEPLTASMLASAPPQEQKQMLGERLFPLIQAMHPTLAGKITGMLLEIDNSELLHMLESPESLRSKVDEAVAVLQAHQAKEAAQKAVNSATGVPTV
MT1-MMP act inh: blocks activation of human MT1-MMP; HT1080 RFP-PRO-GFP cells, GFP/RFP ratio fluorescence, overnight; percent of plate control window, DMSO zero; GFP/RFP ratio change, % at 20 µM; 360,000 compounds, 0.061% hits;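 active means GFP/RFP ratio change of at least 30% with cell ATP level not reduced by more than half and red fluorescence within 50% of control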; further: strong numbers were not always called active
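Assay system: RFP-PRO-GFP reporter HT1080 cells; read-out basis: GFP/RFP fluorescence ratio; benchmarks: DMSO wells and RFP-L50D-GFP cells; doses: 20 µM single dose, 1% DMSO; schedule: overnight cell settling, then overnight compound exposure, 37 °C, 5% CO2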
eIF4H inh: inhibitors of RNA binding by human eIF4H; Q15056; eIF4H fluorescence polarization binding assay; inhibition, % at 35 µM; 290,000 compounds, 0.94% hits;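 active means 50% or more with normal probe brightness, or confirmed in later tests; inconclusive means above 50% with abnormal brightness, or retests that disagree; inactive means below 50% or failed in later tests; about a fifth of its hits are not listed in these tables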;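 further: calls also rest on retests at 20 µM and on dose response follow-up; 0% = protein and probe with vehicle and 100% = probe without protein; strong numbers were not always called active; many hits fall short of the cut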
Rce1 inhib: blocks yeast Ras-converting enzyme; calls only; 290,000 compounds, 0.27% hits; Q03530; yeast membranes, quenched prenylated peptide cleavage fluorescence;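 active means fall in fluorescence gain of 50% or more versus controls, with final raw signal at or below 3038400; inconclusive means same 50% fall but final raw signal above 3038400; inactive means fall in fluorescence gain under 50%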;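 further: plate controls were neutral control wells for no effect and wells lacking membranes for full effect; tested at 10 µM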
HIV Env fusion: inhibitors of HIV Env-mediated cell fusion; HeLa-JRFL Env/CEM21 cell fusion, luciferase; inhibition, % at 12.3 µM; 360,000 compounds, 1.1% hits; AID 651610;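 active means mean replicate inhibition score of at least 50 and every replicate individually at or above 50; inconclusive means only one of the two criteria met; inactive means mean below 50 and not all replicates reaching 50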;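 further: 0% = plate neutral controls and 100% = maraviroc near 300 nM; one replicate is shown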
UUG fidelity: yeast start codon fidelity modulation | S. cerevisiae UUG-firefly luciferase reporter, luminescence/redox ratio | activity score, % at 18.7 µM | 350,000 compounds, 0.13% hits | AID 602363;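 active means replicate mean at a twofold rise or more, about +100% in these data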;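 further: firefly luciferase made from a UUG start codon reports start codon fidelity; reporter light over untreated wells divided by growth signal over untreated wells; some hits fall short of that in this replicate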
eIF4H inh retest: recorded beside eIF4H inh, whose call it bears; inhibition, %; compound at 20 µM; confirmation average;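 mean of two retest wells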
PABP polyA inh retest: recorded beside PABP polyA inh, whose call it bears; inhibition, %; compound at 20 µM; confirmation repeats;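 mean of two retest wells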
MT1-MMP act inh RFP: further read-out of MT1-MMP act inh, marked with its call; RFP signal change, %; measured here: RFP expression control read;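 0 = vehicle wells; hits needed this value within 50% of zero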
* hit, by the source's call; i = inactive; ? = inconclusive; . = no result given. Compounds were not picked by outcome; about 3% have a hit in one of these screens.

SMILES | CSC inhib | PABP polyA inh | MT1-MMP act inh | MT1-MMP act inh RFP | eIF4H inh | Rce1 inhib | HIV Env fusion | UUG fidelity | others
CCOC(=O)c1nnn(-c2nonc2-n2cccc2)c1CN1CCOCC1 | -5 | 1 | 2 | 9 | 5 | i | . | -7
Cc1ccc(NC(=O)c2cc(=O)c3ccccc3o2)cc1S(=O)(=O)N1CCCCC1 | 9 | 1 | 2 | -17 | -2 | i | 21 | .
CC(NC(=O)CSc1ncn[nH]1)c1ccc(Cl)cc1Cl (stereo unspecified) | . | 10 | -2 | -3 | 2 | i | -13 | -30
CN(C)S(=O)(=O)c1cccc(NC(=S)NCCc2ccccn2)c1 | -16 | 1 | 3 | -1 | 1 | i | 1 | -17
CCOC(=O)C1=C(CN2CCCCC2)NC(=O)NC1c1cc(C)ccc1C (stereo unspecified) | 3 | 21 | 1 | 0 | -4 | i | -16 | -18
Cc1ccc(N2CCN(C(=S)Nc3ccc(Cl)cc3)CC2)cc1 | -9 | -2 | 4 | -4 | -2 | i | 1 | -15
COC(=O)[C@@]1(Cc2ccc(OC)cc2)[C@H]2c3cc(C(=O)N(C)C)n(CCc4ccc(OC)c(Br)c4)c3C[C@H]2CN1C(=O)c1ccccc1 | 0 | -4 | . | . | -7 | i | . | .
O=C1CCN(N=Nc2cccc(Cl)c2)N1 | 20 | 8 | . | . | -1 | i | . | .
CCc1ccccc1NC(=O)CN(C)Cc1c(O)ccc2ccccc12 | -2 | 2 | -1 | 1 | -17 | . | 8 | 3
O=C(/C=C/c1ccc(Cl)cc1Cl)NCc1ccncc1 | -13 | 6 | -1 | -3 | -4 | i | . | -16
Cc1ccc(S(=O)(=O)N(C)C)cc1N | -8 | -2 | 3 | 9 | -10 | i | 9 | 6
COc1ccc(CCNC(=O)COC(=O)c2cc(Cl)nc(Cl)c2)cc1 | -21 | . | -10 | -6 | . | . | . | -7
CC(C)(C)OC(=O)N1CC=C2C(C#N)=C(N)C(C#N)(C#N)C(c3cccs3)C2C1 (stereo unspecified) | -15 | ? | -45 | 9 | ? | i | 1 | 0
COCCN(C(=O)CCCc1nc2ccccc2s1)c1c(N)n(CC(C)C)c(=O)[nH]c1=O | -20 | . | -4 | 0 | . | . | . | -5
O=C(O)c1cccc(Oc2ncnc3sc4c(c23)CCCC4)c1 | -10 | -11 | 1 | 4 | -6 | i | 3 | -13
Nc1cccc(S(=O)(=O)c2cccc(N)c2)c1 | -12 | 2 | 0 | 9 | 3 | i | 22 | -23
CCn1c(O)c(C=Nc2ccccc2)oc1=S | -1 | -3 | -6 | -2 | 1 | i | . | -5
CCOc1cccc(OCCCOc2ccccc2)c1 | 3 | -5 | 5 | 2 | 1 | i | . | -9
CCc1cccc(NC(=O)COC(=O)/C=C/c2cccs2)c1 | -8 | . | -2 | 3 | . | i | 11 | -6
CCN1CCN(c2cc(C)c3cc(NC(=S)N4CCN(c5ccccc5)CC4)ccc3n2)CC1 | 42 | 7 | -1 | -1 | -4 | i | -19 | -30
COC(=O)c1c(C(=O)OC)c(-c2ccc(OC)cc2)n2c1CS(=O)(=O)C2 | 1 | -11 | 2 | 8 | -7 | i | -19 | -8
CCOC(=O)C1=C(C)N(CC(C)C)C(=O)C1 | -9 | -4 | 1 | 4 | 1 | i | 7 | .
COc1ccc(/C=N/c2oc(C)c(C)c2C#N)c(OC)c1 | -7 | 9 | 3 | 5 | 37 | . | -12 | .
O=C(NC1CCN(S(=O)(=O)c2ccc(F)cc2)CC1)c1ccccc1 | -31 | 0 | 4 | 1 | -11 | i | -4 | -15
COc1cc(CN2CCN(C(c3ccccc3)c3ccccc3)CC2)cc(OC)c1OC | 2 | 0 | -15 | -17 | 10 | i | -13 | 9

Four structures out of the list, ordered by heavy-atom count, highest first.
SMILES | CSC inhib | PABP polyA inh | MT1-MMP act inh | MT1-MMP act inh RFP | eIF4H inh | Rce1 inhib | HIV Env fusion | UUG fidelity | others
COCCN(C(=O)CCCc1nc2ccccc2s1)c1c(N)n(CC(C)C)c(=O)[nH]c1=O | -20 | . | -4 | 0 | . | . | . | -5
Cc1ccc(NC(=O)c2cc(=O)c3ccccc3o2)cc1S(=O)(=O)N1CCCCC1 | 9 | 1 | 2 | -17 | -2 | i | 21 | .
CC(C)(C)OC(=O)N1CC=C2C(C#N)=C(N)C(C#N)(C#N)C(c3cccs3)C2C1 (stereo unspecified) | -15 | ? | -45 | 9 | ? | i | 1 | 0
COc1ccc(CCNC(=O)COC(=O)c2cc(Cl)nc(Cl)c2)cc1 | -21 | . | -10 | -6 | . | . | . | -7

Entries listed so far that have a halogen, in the order listed:
SMILES | CSC inhib | PABP polyA inh | MT1-MMP act inh | MT1-MMP act inh RFP | eIF4H inh | Rce1 inhib | HIV Env fusion | UUG fidelity | others
CC(NC(=O)CSc1ncn[nH]1)c1ccc(Cl)cc1Cl (stereo unspecified) | . | 10 | -2 | -3 | 2 | i | -13 | -30
Cc1ccc(N2CCN(C(=S)Nc3ccc(Cl)cc3)CC2)cc1 | -9 | -2 | 4 | -4 | -2 | i | 1 | -15
COC(=O)[C@@]1(Cc2ccc(OC)cc2)[C@H]2c3cc(C(=O)N(C)C)n(CCc4ccc(OC)c(Br)c4)c3C[C@H]2CN1C(=O)c1ccccc1 | 0 | -4 | . | . | -7 | i | . | .
O=C1CCN(N=Nc2cccc(Cl)c2)N1 | 20 | 8 | . | . | -1 | i | . | .
O=C(/C=C/c1ccc(Cl)cc1Cl)NCc1ccncc1 | -13 | 6 | -1 | -3 | -4 | i | . | -16
COc1ccc(CCNC(=O)COC(=O)c2cc(Cl)nc(Cl)c2)cc1 | -21 | . | -10 | -6 | . | . | . | -7
O=C(NC1CCN(S(=O)(=O)c2ccc(F)cc2)CC1)c1ccccc1 | -31 | 0 | 4 | 1 | -11 | i | -4 | -15

Next section:
SMILES | CSC inhib | PABP polyA inh | MT1-MMP act inh | MT1-MMP act inh RFP | eIF4H inh | Rce1 inhib | HIV Env fusion | UUG fidelity | others
Cc1ccc2c(c1)N(C)/C(=C/c1cccc[n+]1CCO)S2 | 7 | 66* | -50 | -21 | -2 | i | -23 | 2 | eIF4H inh retest=9;PABP polyA inh retest=93*
Cc1ccc(NC(=O)C2(N(CC(C)C)C(=O)Cn3nnnc3N)CCCCC2)cc1 | -1 | 2 | 2 | -2 | -5 | i | 23 | -18
CCc1ccc(-n2c(SCC(=O)Nc3cccc(S(=O)(=O)NC4=NCCCCC4)c3)nc3ccccc3c2=O)cc1 | . | -10 | -6 | -9 | 1 | i | -17 | .
CCN(C(=O)CN1C(=O)S/C(=C\c2ccc(F)cc2)C1=O)C1CCS(=O)(=O)C1 (stereo unspecified) | -12 | 21 | 3 | 1 | -11 | i | -3 | 16
CN(C)CCCNc1nc2cc(-c3ccc4c(ccn4C)c3)sc2c(=O)n1C | . | . | 5 | 6 | . | . | -29 | 19
CCN(Cc1cc(=O)n2ccsc2n1)c1cccc2ccccc12 | 9 | 0 | -3 | -5 | 17 | i | 27 | .
COc1ccc2oc(C(=O)OCC(=O)Nc3ccc(N4CCOCC4)cc3)c(C)c2c1 | -10 | . | 2 | 2 | . | i | . | .
CC(C)C(=O)Nc1ccc(COc2ccccc2CN(Cc2ccccc2)C(=O)OC(C)(C)C)cc1 | . | . | -3 | -7 | . | . | 13 | -7
CSc1cccc(NC(=O)C2CCN(S(C)(=O)=O)CC2)c1 | -15 | -3 | 1 | 0 | 0 | i | . | -12
CCOc1ccccc1C(=O)NC(C)c1ccc2c(c1)OCO2 (stereo unspecified) | . | -4 | -5 | -1 | -8 | i | -31 | 1
Cc1cc2oc(=O)cc(CN3CCN(c4ccccc4)CC3)c2cc1Cl | . | . | 4 | 1 | . | . | 10 | -13
Cc1c(Cc2ccccc2)c(=O)oc2c(C)c(OCC(=O)Nc3ccc(C#N)cc3)ccc12 | 20 | 3 | 2 | -2 | -7 | i | . | -4
O=C(CN1CCN(c2ccc(F)cc2)CC1)Nc1nccs1 | . | 6 | -1 | 0 | 8 | i | -13 | -2
c1ccc(C2[C@H]3CN(Cc4cccnc4)[C@H](c4ccccc4)C34CC2(c2cccnc2)C4)cc1 (stereo partly specified) | 11 | 0 | -2 | -2 | 8 | i | -187 | -16
O=C(NCc1ccccn1)C1CC(c2ccc(F)cc2)=NO1 (stereo unspecified) | -12 | 2 | 11 | 7 | -4 | i | -17 | 2
O=C(O)c1nn(CC(=O)N2CCN(c3ccccc3)CC2)c(=O)c2ccccc12 | -7 | 9 | -1 | 0 | 17 | i | 8 | -10
Cc1ccc(C)c(-c2nn(-c3cc(N4CCN(CCO)CC4)ccc3[N+](=O)[O-])c(=O)c3ccccc23)c1 | . | -6 | 3 | -4 | -12 | i | . | 0
O=C(c1ccco1)N1CCN(Cc2cn[nH]c2-c2ccc(F)cc2F)CC1 | -6 | -1 | -14 | -1 | -5 | i | 3 | .
CCC(C)[C@@H](CN)NCC1(c2ccccc2)CC1 (stereo partly specified) | -11 | . | -2 | 2 | . | . | -8 | -11
COc1cc(C(=O)NCc2nnc(SCC(=O)Nc3cccc(C)c3)o2)cc(OC)c1OC | -4 | -6 | -1 | 3 | -8 | i | -72 | 14
CCN1CCN(CCCNC(=O)c2ccc3c(=O)n(CCc4ccccc4)c(=O)[nH]c3c2)CC1 | 3 | -8 | 3 | 2 | -2 | . | 4 | -4
O=C(NN1C(=O)c2ccccc2NC1c1ccco1)c1ccc([N+](=O)[O-])cc1 (stereo unspecified) | -8 | 25 | -3 | -2 | -11 | i | 4 | .
CC(C)N(C(=O)COC(=O)c1cncc(Br)c1)C(C)C | -3 | 15 | 2 | -1 | 1 | i | 30 | -3
CCCn1c(SCC(=O)Nc2ccc(F)c(Cl)c2)nc(O)cc1=O | 25 | . | -1 | -3 | . | . | 1 | -8
Nc1ncnc2c1ncn2-c1ccccc1Cl | . | . | 6 | 1 | . | . | -2 | -19
CC(=O)Nc1cc(-c2ccccc2F)cn2c(-c3ccccc3)cnc12 | . | . | -2 | -1 | . | . | -17 | -15
COC(=O)CC1C(=O)NCCN1C(=S)NC(=O)c1ccccc1[N+](=O)[O-] (stereo unspecified) | -7 | 119 | 10 | 3 | -2 | i | -166 | -11 | eIF4H inh retest=-3;PABP polyA inh retest=11
COC(=O)c1cn(NC(=O)CCC2CCCC2)c(=O)c2ccccc12 | -6 | 13 | -1 | 0 | 2 | i | -15 | -7
CC1(C)Cc2nc3oc4c(=O)n(CC(=O)Nc5ccccc5)cnc4c3cc2CO1 | -20 | -4 | 2 | 5 | -4 | i | 19 | -29
COc1ccc(CCNC(=O)Cn2cc(C(F)(F)F)cc(Cl)c2=O)cc1OC | -2 | -10 | 3 | 3 | -7 | i | . | .

Screens deposited in PubChem by several laboratories.
